# Source: PubChem BioAssay
# Polio RdRp inh = inhibitors of poliovirus RNA polymerase binding and polymerization; poliovirus polymerase elongation, fluorescence polarization; stronger effect = lower value; hit rate 0.66% among 150,000; % elongation, % (compound at 16.7 µg/mL); P03300; AID 588519; in the data active = % elongation below about 90%; note: some results filed as inactive read as strong as hits
# Target sequence (P03300 1749-2209 limits assumed): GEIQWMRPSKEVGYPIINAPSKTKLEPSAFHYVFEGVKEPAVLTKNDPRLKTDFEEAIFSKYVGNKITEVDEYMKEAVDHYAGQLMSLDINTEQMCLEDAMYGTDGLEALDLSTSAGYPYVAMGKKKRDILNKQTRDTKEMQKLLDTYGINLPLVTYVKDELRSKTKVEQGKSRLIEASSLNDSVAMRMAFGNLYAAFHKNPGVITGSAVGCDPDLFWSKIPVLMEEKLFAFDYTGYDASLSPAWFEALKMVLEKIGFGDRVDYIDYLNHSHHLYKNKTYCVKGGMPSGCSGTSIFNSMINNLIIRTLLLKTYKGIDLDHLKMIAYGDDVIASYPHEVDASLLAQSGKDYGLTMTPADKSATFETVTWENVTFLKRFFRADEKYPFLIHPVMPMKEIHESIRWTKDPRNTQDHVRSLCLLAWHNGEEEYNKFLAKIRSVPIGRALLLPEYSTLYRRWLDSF
# Polio RdRp inh intensity = recorded beside Polio RdRp inh, whose call it bears; % elongation; measured here: total intensity read-out; formula for this scale not given here;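 total fluorescence in place of polarization; lower means less elongation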
# The depositor's hits bear a star. These rows are one share of the data (hit frequency here may not be typical).
SMILES,Polio RdRp inh,Polio RdRp inh intensity
COc1ccc(N2Cc3cccc(C(=O)Nc4cc(C)cc(C)c4)c3C2=O)cc1,111,111
Cc1ccc(-c2cn3c(n2)sc2cc(C(=O)NCCCN4CCCCCC4)ccc23)cc1,103,97
COc1ccc(NC(=O)C2CCN(C(=O)c3sc4nc[nH]c(=O)c4c3C)CC2)cc1Cl,110,114
Cc1ccc(NC(=O)C2CCC(CNS(=O)(=O)c3csc(C(N)=O)c3)CC2)cc1Cl (configuration not stated),106,112
COCCNC(=O)c1ccc2c(c1)ncn2-c1cc(C)ccc1OC,106,114
O=C1CC(c2cc(F)cc(F)c2)c2cc3c(cc2N1)OCO3 (configuration not stated),109,113
CCC1CN(C(=O)NCc2cccc(OC)c2)c2cc(Cl)ccc2O1 (configuration not stated),106,106
O=C(Nc1ccc(F)c(Cl)c1)C1CCCN(S(=O)(=O)c2cccc3nsnc23)C1 (configuration not stated),105,112
COc1cccc(N2CC(NC(=O)c3cccc(OC)c3OC)CC2=O)c1 (configuration not stated),98,103
COc1ccc(-c2nn(-c3ccccc3)cc2C2NC(=O)NC(C)=C2C(=O)OC(C)C)cc1Cl (configuration not stated),104,108
O=C(Cc1ccc(Cl)cc1)NCCc1csc2nc(-c3ccccc3F)nn12,106,102
COc1ccc(NC(=O)CSc2nc(-c3ccccc3)nc3cc(=O)[nH]n23)cc1,103,109
CCC1Oc2ccccc2N(CC(=O)NCCc2ccc(OC)c(OC)c2)C1=O (configuration not stated),109,100
CCN1CCN(CCCNC(=O)Cn2c(-c3cccs3)cc3cc(Cl)ccc32)CC1,108,103
CCCCNC(=O)C1CCC(CNS(=O)(=O)c2ccc(Cl)cc2)CC1 (configuration not stated),104,100
COc1ccc2c(c1)c(=O)c(C(=O)c1ccc(Cl)cc1)cn2CC(=O)Nc1ccc2c(c1)OCO2,110,111
CC(=O)Nc1ccc(S(=O)(=O)NC2=NCN(C(C)C)CN2)cc1,100,97
COc1ccc(C(CNC(=O)c2oc3ccc(C)cc3c2C)N2CCOCC2)cc1 (configuration not stated),110,104
CCNC(=O)c1ccc2c(c1)sc1nc(-c3cccc(OC)c3)cn12,99,89
CCOC(=O)C1CCN(C(=O)CSc2n[nH]c(-c3ccc(F)cc3)n2)CC1,105,108
Cc1ccc(OCc2cc(=O)n3cc(C)sc3n2)c(C)c1,106,106
CCOc1ccccc1C(=O)Nc1cc2c(cc1N1CCCCC1)n(C)c(=O)n2C,104,104
CC(=O)c1ccc(NC(=O)c2noc3c2CCc2ccccc2-3)cc1,105,108
COCCCNC(=O)CN1C(=O)c2cccnc2Sc2ccccc21,108,110
Cn1c(=O)oc2cc(S(=O)(=O)NCCC(=O)Nc3ccc(F)cc3F)ccc21,106,112
CCc1ccc(NC(=O)CSC2=Nc3ccccc3C3=NC(CC(=O)NCc4ccccc4)C(=O)N23)cc1 (configuration not stated),99,106
COCCCNC(=O)C1CCC(Cn2c(=O)c3sccc3n(C)c2=O)CC1 (configuration not stated),114,103
COc1ccc(-c2noc(CNC(=O)c3ccco3)n2)cc1,105,110
CCOc1ccc(N2CC(c3nc4ccccc4n3Cc3cccc(C)c3)CC2=O)cc1 (configuration not stated),104,108
COc1ccccc1CCNC(=O)CCc1c(C)c2cc3c(C)c(C)oc3cc2oc1=O,111,108
O=C(Nc1cccc(F)c1)c1ccc(-c2ccccc2)s1,101,106
CCOc1ccc(C(=O)N2CCC(c3nc(-c4ccc(S(=O)(=O)N5CCCC5)cc4)no3)CC2)cc1,110,114
CC(=O)N1CCc2c(sc3c2c(=O)n(-c2ccccc2)c(=O)n3CC(=O)Nc2ccccc2C)C1,100,108
Cc1ccc(CNC(=O)c2cc3c(s2)-c2c(C)cccc2OC3)cc1,110,109
Cc1cc(C)c(NS(=O)(=O)c2ccc(-c3coc(C)n3)cc2)c(C)c1,110,112
COc1ccc2c(c1)sc1ncc(C(=O)NCc3ccc(OC(C)C)cc3)c(=O)n12,112,111
Cc1ccc2c(c1)c(=O)c1ccccc1n2CCCC(=O)Nc1ccc(C)c(F)c1,111,105
CCC(C)NC(=O)C1CCN(C(=O)c2cc3sccc3n2Cc2ccc(Cl)cc2)CC1 (configuration not stated),106,110
CCOC(=O)C1CCN(C(=O)C2COc3ccccc3C2)CC1 (configuration not stated),101,104
COc1ccccc1NC(=O)N1CCC(CN2CCc3ccccc3C2)CC1,108,111
COc1ccc(NS(=O)(=O)c2cc3c4c(c2)CC(=O)N4CCC3)cc1Cl,98,103
Cc1cc(=O)n(CC(=O)Nc2ccc(Cl)c(Cl)c2)c(-n2nc(C)cc2C)n1,99,98
CCC(Cn1nnc2ccccc2c1=O)NC(=O)Nc1ccccc1Cl (configuration not stated),106,104
CCN(CC)CCNC(=O)CN1C(=O)COc2ccc(S(=O)(=O)N3CCOCC3)cc21,100,102
COc1ccc(CCNC(=O)Cn2cc(C(=O)c3ccc(F)cc3)c(=O)c3ccc(C)nc32)cc1OC,109,101
CCOC(=O)c1ccc(NC2=CC(c3ccc(O)c(OCC)c3)N(c3ccc(C(=O)OCC)cc3)C2=O)cc1 (configuration not stated),106,103
CCc1ccc(S(=O)(=O)c2nnn3c2nc(N2CCCC(C)C2)c2cc(Cl)ccc23)cc1 (configuration not stated),100,103
COc1ccc(-c2ccc(CNCCCSc3nnnn3C)o2)cc1Cl,101,94
COc1ccccc1-c1nc2c(c(SCc3cccc(Cl)c3)n1)Cc1c(CO)cnc(C)c1O2,113,114
COc1ccc(NC(=O)c2c(NC(=O)c3cccc(C)c3)sc3c2CCCC3)cc1,104,104
CCn1cc(C2N3CC4(CC)CN2CC(CC)(C3)C4=O)c2ccccc21 (configuration not stated),106,109
Cn1c(C(=O)NCc2cccc(F)c2)cc2cc(S(=O)(=O)N3CCCCC3)ccc21,113,119
Cc1ccc(C)c(N2CCN(C(=O)c3noc4c3CCCCC4)CC2)c1,110,96
Cc1cc(NS(=O)(=O)c2ccc(NC(=O)c3ccccc3F)cc2)nc(C)n1,102,106
CN(C(=O)CSc1nc2ccccc2n1CC(=O)N(C)c1ccc(F)cc1)c1ccccc1,102,105
COCCNC(=O)CCCn1c(=O)[nH]c2ccsc2c1=O,106,111
Cc1cc(C)n2nc(CNS(=O)(=O)c3ccc(F)cc3)nc2n1,103,104
CCOC(=O)c1cc(-c2ccc(C)cc2)n(CC(=O)NC2CCCCCC2)c1C,103,107
COc1ccc(NCc2cc3cc4c(cc3n(CC(=O)Nc3cc(C)ccc3C)c2=O)OCCO4)cc1,107,110
COc1cc(OC)c(Nc2ncnc3onc(-c4cccc(Cl)c4)c23)cc1Cl,101,102
# Additional structures follow:
SMILES,Polio RdRp inh,Polio RdRp inh intensity
Cc1ccc(NC(=O)CN2C(=O)CC(c3ccc(C)c(C)c3)=Nc3ccccc32)cc1,105,110
Cc1cccc(-c2nc3scc(CCNS(=O)(=O)c4ccc(F)cc4C)n3n2)c1,111,109
COc1ccc(NC(=O)CCNS(=O)(=O)c2ccc3c(c2)CCCC(=O)N3)cc1Cl,100,98
COc1cccc(CNC(=O)c2sc3nc[nH]c(=O)c3c2C)c1,97,104
CCN(CC)S(=O)(=O)c1ccc2c(c1)c(=O)c(C(=O)N1CCN(c3ccccc3OC)CC1)cn2C,107,102
Cc1cc(C)c(NC(=O)CSc2ccnc(=O)[nH]2)c(C)c1,107,106
Cc1ccc(NC(=O)c2oc3ccccc3c2NC(=O)C2CCCCC2)cc1,106,107
COc1ccc(-n2nc(C(=O)N3CCN(c4cccc(C)c4)C(C)C3)c3c4ccccc4n(C)c3c2=O)cc1Cl (configuration not stated),104,104
Cc1ccc(NC(=O)Cn2ccn(-c3ccccc3)c(=O)c2=O)cc1,107,108
CS(=O)(=O)c1ncc(Cl)c(C(=O)Nc2c(C(=O)c3ccc(Cl)cc3)oc3ccccc23)n1,120,110
CC(C)(C)C(=O)Nc1ccc(Cl)c(-c2nc3ccccc3[nH]2)c1,104,101
O=c1c(S(=O)(=O)c2ccccc2)cn(Cc2cccc(F)c2)c2cc(N3CCOCC3)c(F)cc12,110,110
CCCCN(C)c1ncnc2c1cnn2-c1cccc(Cl)c1,102,107
COc1cc(C(=O)Nc2cc(C)c(O)c(-c3nc4cc(Cl)ccc4o3)c2)cc(OC)c1OC,104,108
CCOC(=O)c1c(NC(=O)/C=C/c2ccc(Cl)cc2)sc2c1CCC(C)C2 (configuration not stated),107,113

# Pulled one by one from the entries so far:
SMILES,Polio RdRp inh,Polio RdRp inh intensity
CC(C)(C)C(=O)Nc1ccc(Cl)c(-c2nc3ccccc3[nH]2)c1,104,101
CCN(CC)S(=O)(=O)c1ccc2c(c1)c(=O)c(C(=O)N1CCN(c3ccccc3OC)CC1)cn2C,107,102

# Profiles from above. Screens in order: Polio RdRp inh | Polio RdRp inh intensity
# `Cc1ccc(NC(=O)c2oc3ccccc3c2NC(=O)C2CCCCC2)cc1` is listed with 106 | 107
# `CCN(CC)CCNC(=O)CN1C(=O)COc2ccc(S(=O)(=O)N3CCOCC3)cc21` is listed with 100 | 102
# `COc1ccccc1CCNC(=O)CCc1c(C)c2cc3c(C)c(C)oc3cc2oc1=O` is listed with 111 | 108
# `COc1cc(OC)c(Nc2ncnc3onc(-c4cccc(Cl)c4)c23)cc1Cl` is listed with 101 | 102
# `COc1ccc(-c2ccc(CNCCCSc3nnnn3C)o2)cc1Cl` is listed with 101 | 94

# An excerpt of these results, with values under each structure.
# Under each structure – Polio RdRp inh, Polio RdRp inh intensity
- Cc1ccc(NC(=O)Cn2ccn(-c3ccccc3)c(=O)c2=O)cc1
 : 107, 108
- CS(=O)(=O)c1ncc(Cl)c(C(=O)Nc2c(C(=O)c3ccc(Cl)cc3)oc3ccccc23)n1
 : 120, 110
- CC(C)(C)C(=O)Nc1ccc(Cl)c(-c2nc3ccccc3[nH]2)c1
 : 104, 101
- O=c1c(S(=O)(=O)c2ccccc2)cn(Cc2cccc(F)c2)c2cc(N3CCOCC3)c(F)cc12
 : 110, 110
- CCCCN(C)c1ncnc2c1cnn2-c1cccc(Cl)c1
 : 102, 107

# Going on with the list.
SMILES,Polio RdRp inh,Polio RdRp inh intensity
O=C(CSc1ccc(-c2ccccn2)nn1)Nc1ccc(F)c(F)c1,111,108
CC(C)c1ccc(NC(=O)C2CCCN(S(=O)(=O)c3cccc4nsnc34)C2)cc1 (configuration not stated),107,111
CC(C)c1ccc(N2C(=O)CSC23C(=O)N(Cc2cccc(F)c2)c2ccccc23)cc1 (configuration not stated),101,103
Cc1ccc(OCC(=O)Nc2nonc2-c2ccc(C)c(C)c2)cc1C,107,113
CCCC(=O)N1CCc2cc(OC)c(OC)cc2C1COc1ccc(C(=O)OC)cc1 (configuration not stated),104,113
CN(Cc1ccc(F)cc1)S(=O)(=O)c1nnc(NC(=O)c2ccc(F)cc2)s1,106,111
CCOc1ccccc1C(=O)Nc1ccc(S(=O)(=O)N(Cc2ccccc2)c2ccccc2)cc1,111,100
CCOC(=O)c1c(S(=O)(=O)N2CCCC(C(=O)N3CCN(c4cccc(C)c4C)CC3)C2)c(C)n(C)c1C (configuration not stated),105,107
COc1cc(C(=O)OCc2cc(=O)n3ccsc3n2)cc(OC)c1OC,107,110
O=C(Nc1nnc(S(=O)(=O)N2CCCC2)s1)c1ccccc1F,102,109
CCN1CCN(c2c(S(=O)(=O)c3ccc(C)c(C)c3)cnc3ccc(F)cc23)CC1,101,109
Cc1cccc(NC(=O)c2ccc(F)c(S(=O)(=O)N3CCN(c4ccc(F)cc4)CC3)c2)c1,109,103
CCCCCCNc1ncnc2c1sc1nc(N3CCOCC3)c3c(c12)CCCC3,105,106
COc1cccc(-n2ccnc2SCC(=O)Nc2nc3ccc(C)cc3s2)c1,116,121
COc1cccc(-n2c(=O)c3sc4ccccc4c3n(CC(=O)Nc3ccccc3OC)c2=O)c1,101,104
COc1ccc2c(c1)CCc1c(C(=O)Nc3c(C)nn(Cc4ccccc4C)c3C)noc1-2,98,103
COc1ccc(NC(=O)c2c(NC(=O)C(F)(F)F)sc3c2CCCCC3)cc1,103,108
Cc1cc(C)cc(NC(=O)CSc2oc(-c3ccco3)nc2S(=O)(=O)c2ccc(Cl)cc2)c1,103,102
CC(=O)c1ccc(NC(=O)Cn2c3ncccc3c(=O)n2-c2ccc(C)cc2)cc1,105,109
Cc1cc(C)cc(NS(=O)(=O)c2ccc3[nH]cc(C(=O)N4CCCCC4)c(=O)c3c2)c1,106,108
Cc1ccc2c(c1)cc1c(=O)n(Cc3ccc(Cl)cc3)nc(C)n12,109,110
CCc1cccc(NC(=O)c2nc(-c3ccncc3)no2)c1,100,97
O=C1C(c2ccc(F)cc2)N(CCc2ccccc2)C(=O)CN1C1CCCCCC1 (configuration not stated),105,108
COc1cccc(-c2nnc3n(Cc4ccc(C)cc4)c(=O)c4ccccc4n23)c1O,103,102
COc1cccc(NC(=O)c2c(N3CCCC3=O)c3cc(C)ccc3n2C)c1,108,107
CCOC(=O)c1ccccc1NC(=O)CN(c1cccc(C)c1C)S(=O)(=O)c1ccccc1,103,92
O=C1CS(=O)(=O)C2(C(=O)Nc3ccccc32)N1c1cccc(Cl)c1 (configuration not stated),110,107
COc1ccc(-c2csc(NC(C)=O)n2)cc1C,102,100
COc1ccc(OC)c(-n2cnc3cc(C(=O)NC4CCCC4)ccc32)c1,104,107
COc1cccc(NS(=O)(=O)c2ccc(-c3cc(C)no3)s2)c1,109,111

# Part of the list above, tab-delimited.
SMILES	Polio RdRp inh	Polio RdRp inh intensity
COc1ccc(NC(=O)c2c(NC(=O)C(F)(F)F)sc3c2CCCCC3)cc1	103	108
Cc1cc(C)cc(NC(=O)CSc2oc(-c3ccco3)nc2S(=O)(=O)c2ccc(Cl)cc2)c1	103	102

# Remaining list, next part.
SMILES,Polio RdRp inh,Polio RdRp inh intensity
O=C(CCS(=O)(=O)c1cc2c(cc1Cl)NC(=O)CO2)NCc1ccc(Cl)cc1,98,107
O=C(Cc1csc2nc(-c3ccc(F)cc3)cn12)NCc1ccccc1,108,112
Cc1ccc(C)c(CSc2cn(CCNC(=O)c3cccs3)c3ccccc23)c1,105,110
CCN(CC)S(=O)(=O)c1ccc2nc(NC(=O)c3ccc(Br)o3)sc2c1,107,111
O=C(CCC1N=C2c3ccccc3N=C(SCc3cccc(Cl)c3)N2C1=O)NCc1cccs1 (configuration not stated),109,103
Cc1ccc2nc(NCCc3ccc(Cl)cc3)c3nncn3c2c1,107,105
